Mtb betalactam = beta-lactam sensitization of Mtb H37Rv; M. tuberculosis H37Rv growth with meropenem, percent inhibition; hits of this screen are not shown here; inhibition, % at 25 µM; 0.27% of 330,000 active;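 active = about 74% or more and at least 40 points above the plate without the antibiotic, then above 30% in a dose series; inconclusive = first-round hits that could not be retested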;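 also: growth measured after seven days incubation then overnight dye step; 0% = bacteria only wells and 100% = bacteria with antibiotic; twin plates without the antibiotic show which effects depend on it; some results filed as inactive read as strong as hits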
The depositor's hits bear a star; u = inconclusive.

smiles	Mtb betalactam
CC(NC(=O)COC(=O)/C=C/c1ccc2c(c1)OCO2)c1ccccc1 (stereo not drawn)	13
CC(C)c1ccc(N(CC(=O)NCc2ccco2)C(=O)CCC(=O)Nc2nccs2)cc1	3
CC(Sc1ccc(S(=O)(=O)N2CCCC2)cn1)C(N)=O (stereo not drawn)	-3
CCCNC(=O)C(Cc1ccc(C(F)(F)F)cc1)NC(=O)c1ccc(C#N)cc1 (stereo not drawn)	1
C[C@H](N)C(=O)N1CCC(C(=O)N[C@@H](Cc2ccccc2)C(=O)Nc2ccc(F)cc2)CC1	-12
O=C(COC(=O)c1n[nH]c(=O)c2ccccc12)Nc1ccccc1F	-5
COc1ccc(C(=O)N2CCN(c3ccc(C(C)=O)cc3F)CC2)cc1S(=O)(=O)NC1CC1	-9
C=CC[C@H](CC(=O)N(CCO)Cc1ccccc1)C(=O)N[C@H](COC(=O)[C@@H](CC=C)CC(=O)OC(C)(C)C)Cc1ccccc1	-4
CCC(C(=O)OCC(=O)N(CC)c1c(N)n(Cc2ccccc2)c(=O)[nH]c1=O)c1ccccc1 (stereo not drawn)	-2
CCCN(C(=O)c1ccc([N+](=O)[O-])c(C)c1)c1c(N)n(Cc2ccccc2)c(=O)[nH]c1=O	6
Oc1ccccc1-c1cc(-c2ccccc2)n[nH]1	9
Cc1ccc(S(=O)(=O)N2CCN(C(=O)COC(=O)c3ccc(Cl)nc3)CC2)c(C)c1	1
Oc1ccc(C2CNCc3sccc32)cc1O (stereo not drawn)	-3
C#CCOCCOCCOCCNc1nc(N2CCN(C(=O)[C@H]([C@@H](C)CC)n3cc(CCCCN)nn3)CC2)nc(N2CCN(C(=O)[C@H](C)n3cc(CCCN=C(N)N)nn3)CC2)n1	-8
C[C@H](NC(=O)c1cccc([N+](=O)[O-])c1)C(=O)OCC(=O)c1ccccc1Br	2
CC(=O)O[C@H]1CC[C@@]2(C)C(=CC(=O)C3C2CC[C@@]2(C)C3C[C@H](OC(C)=O)[C@@H]2OC(C)=O)C1 (stereo partly drawn)	-9
CN(C)S(=O)(=O)c1ccc(N2CCCC2)c(C(=O)NNC(=O)c2ccc(F)cc2)c1	-1
Cc1ccc(C(=O)OCC(=O)NCC2COc3ccccc3O2)cc1 (stereo not drawn)	-5
COCCNc1oc(-c2ccco2)nc1S(=O)(=O)c1ccccc1	u
Cc1ccc(S(=O)(=O)Nc2cccc(Cl)c2)cc1NC(=O)C1CC1	-9
O=C(C[C@H]1C/C=C\CC[C@H](Cc2ccc(F)cc2)C(=O)OCCNC1=O)NCCO	-3
CC(C)c1cccc(C(C)C)c1NC(=O)CN(C)C1CCS(=O)(=O)C1 (stereo not drawn)	1
CC(C)n1cnc2c(NCc3ccccc3)cc(OCC3CCN(C)CC3)cc21	-1
Oc1ccc(Cl)cc1CNCc1ccc(F)cc1	7
COc1ccccc1/C=N/NC(=O)c1cccc(NC(=O)c2ccccc2C)c1	-2
C[C@@H]1CC[C@]2(C(=O)O)CC[C@]3(C)C(=CCC4[C@]56CC[C@@](O)(OC5)C(C)(C)C6CC[C@]43C)C2[C@H]1C (stereo partly drawn)	-5
COc1ccc(C(OC(=O)c2ccco2)C(=O)NC2CCCC2)cc1OC (stereo not drawn)	-7
COC(=O)C1=C(c2ccc(OC)c(OC)c2)C[C@@H]2CC[C@H]1N2C(=O)NCCc1ccccc1	-2
CC(=O)C(Cc1ccccc1)NC(=O)COC(=O)c1ccc(-n2cnnn2)cc1 (stereo not drawn)	3
COc1cc(C2CC(=O)c3cnc(NC(=O)c4ccco4)nc3C2)cc(OC)c1OC (stereo not drawn)	4

The last 5 compounds of the part above open the next one.
smiles	Mtb betalactam
C[C@@H]1CC[C@]2(C(=O)O)CC[C@]3(C)C(=CCC4[C@]56CC[C@@](O)(OC5)C(C)(C)C6CC[C@]43C)C2[C@H]1C (stereo partly drawn)	-5
COc1ccc(C(OC(=O)c2ccco2)C(=O)NC2CCCC2)cc1OC (stereo not drawn)	-7
COC(=O)C1=C(c2ccc(OC)c(OC)c2)C[C@@H]2CC[C@H]1N2C(=O)NCCc1ccccc1	-2
CC(=O)C(Cc1ccccc1)NC(=O)COC(=O)c1ccc(-n2cnnn2)cc1 (stereo not drawn)	3
COc1cc(C2CC(=O)c3cnc(NC(=O)c4ccco4)nc3C2)cc(OC)c1OC (stereo not drawn)	4
CCN(CC(=O)Nc1c(F)cccc1F)C(=O)CN1c2cccc3cccc(c23)S1(=O)=O	-11
O=C(Cn1cc([N+](=O)[O-])cn1)N1CCN(Cc2ccc3c(c2)OCO3)CC1	3
O=C(NNC(=O)c1ccccc1Cl)c1ccc2c(c1)OCCO2	-7
O=C(COC(=O)c1cccc(Br)c1)NCC1CCCO1 (stereo not drawn)	4
Cc1ccc(N(Cc2ccccc2)C(=O)c2ccc(C)c(S(=O)(=O)N3CCOCC3)c2)cc1	-4
CCOC(=O)C1=C(COC(=O)c2ccco2)NC(=O)NC1CC (stereo not drawn)	0
O=[N+]([O-])c1ccccc1CNCCCCO	-7
Cc1cc(C)nc(NNS(=O)(=O)c2c(F)cc(F)cc2Br)n1	0
O=C(COC(=O)/C=C/c1ccc(Cl)cc1)NC1CCCCCC1	49
COc1ccc2sc(-c3ccc(N(C)C)cc3)c(-c3cnc(OC)nc3)c2c1	3
COc1ccccc1C(=O)Nc1ccc(OCC(=O)N2CCCCC2C)cc1 (stereo not drawn)	32
CC(OC(=O)c1ccc(-n2cnnn2)cc1)C(=O)Nc1ccccc1F (stereo not drawn)	-4
CC1CCN(S(=O)(=O)c2ccc(C(=O)N3CCCCC3C(=O)O)cc2)CC1 (stereo not drawn)	-3
Cc1ccccc1NS(=O)(=O)c1ccc(C(=O)N(C)CC(=O)Nc2ccccc2Br)cc1	-5
O=C(COC(=O)Cc1n[nH]c(=O)c2ccccc12)Nc1ncc(Cl)cc1Cl	4

A second format for part of the listing above.
> COc1ccc2sc(-c3ccc(N(C)C)cc3)c(-c3cnc(OC)nc3)c2c1
- Mtb betalactam = 3

> O=[N+]([O-])c1ccccc1CNCCCCO
- Mtb betalactam = -7

Next section:
smiles	Mtb betalactam
COC(=O)C1=C(c2ccc3ccccc3c2)C[C@@H]2CC[C@H]1N2C(=O)N1CCCC1	6
COc1ccc(-c2c(-c3ccc(C#N)cc3)oc(=O)c3cc(OC)c(OC)cc23)cc1	1
C[C@]12CCC3C(CC[C@H]4C[C@H](O)CC[C@]34C)C1[C@@H](O)C[C@@H]2O (stereo partly drawn)	-3
COc1ccc(-c2c(C#Cc3ccsc3)c3cc(-c4ccc(C(N)=O)cc4)ccc3n2C)cc1	-9
Cc1ccc(NC(=O)COC(=O)C2(CC(=O)NC(C)(C)C)CCCC2)cc1C	-1
Cc1cc(C)cc(N(CCC#N)C(=O)CN2C(=O)NC3(CCCC3)C2=O)c1	-5
CN1CCN(CC(O)COc2ccc(S(=O)(=O)N3CCOCC3)cc2)CC1 (stereo not drawn)	1
CCOc1cccc(C2C(C(=O)c3ccco3)=C(O)C(=O)N2c2nnc(C)s2)c1 (stereo not drawn)	-6
Cc1noc(C)c1C(=O)N1CCN(c2ccccc2O)CC1	-2
O=C(O)c1cccc2c1C(=O)c1ccc(N3CCCC3)cc1S2(=O)=O	1
COc1cc(-c2cc(C(=O)Nc3ccc(C)c(S(=O)(=O)N4CCOCC4)c3)c3ccccc3n2)cc(OC)c1OC	-12
CN(CC(=O)Nc1ccccc1C(F)(F)F)C(=O)CSc1nnc(N)s1	-13
CCN(C(=O)CN1CCCC(C)C1)c1c(N)n(Cc2ccccc2)c(=O)[nH]c1=O (stereo not drawn)	-5
CC(C)(C)N(Cc1ccccc1)C(=O)COC(=O)CNS(=O)(=O)c1ccc2ccccc2c1	8
Cc1ccc(NC(=O)C2CC2c2ccccc2)cc1 (stereo not drawn)	-3

Copied from the list.
CN(CC(=O)Nc1ccccc1C(F)(F)F)C(=O)CSc1nnc(N)s1 – Mtb betalactam: -13
COC(=O)C1=C(c2ccc3ccccc3c2)C[C@@H]2CC[C@H]1N2C(=O)N1CCCC1 – Mtb betalactam: 6
Cc1ccc(NC(=O)C2CC2c2ccccc2)cc1 (stereo not drawn) – Mtb betalactam: -3
COc1cc(-c2cc(C(=O)Nc3ccc(C)c(S(=O)(=O)N4CCOCC4)c3)c3ccccc3n2)cc(OC)c1OC – Mtb betalactam: -12
COc1ccc(-c2c(-c3ccc(C#N)cc3)oc(=O)c3cc(OC)c(OC)cc23)cc1 – Mtb betalactam: 1

Other compounds
smiles	Mtb betalactam
COC(=O)[C@]1(C)N[C@H](c2ccc(-c3cccc(Cl)c3)c(OC)c2)[C@@H]2C(=O)N(C)C(=O)[C@@H]21	-7
CN1CCN(c2ccc(S(=O)(=O)N3CCCCC3)cc2NC(=O)CCc2ccccc2)CC1	-6
Cc1cc(-n2c(C)cc(C(=O)COc3ccc(F)c(F)c3)c2C)no1	12
NS(=O)(=O)c1cccc(NC(=O)COC(=O)CCC(=O)c2cccs2)c1	-3
CCc1ccc(C(=O)NNC(=O)c2ccc(OCC(=O)N3CCOCC3)c(OC)c2)cc1	-13
COC(=O)[C@]1(Cc2ccccc2)N[C@H](CN(C)S(=O)(=O)c2ccc(C(C)(C)C)cc2)[C@@H]2C(=O)N(Cc3ccccc3)C(=O)[C@@H]21	19
COc1cc(/C=C/C(=O)O)cc(S(=O)(=O)Nc2ccc3cn[nH]c3c2)c1OC	-5
COc1ccc(C(=O)COC(=O)c2nc3nccc(C)n3n2)cc1F	-6
O=C(CCNS(=O)(=O)c1ccccc1C(F)(F)F)NCCCN1CCOCC1	-5
Cc1cc(C)n2nc(SCC(=O)Nc3ccc(F)cc3[N+](=O)[O-])nc2n1	-3
C/C(=N\NC(=O)COc1cccc(Br)c1)c1ccc2c(c1)OCCO2	8
COc1ccccc1C(CNC(=O)CNC(=O)c1ccc(C)c(C)c1)N1CCCC1 (stereo not drawn)	-6
CCN(CC)S(=O)(=O)c1ccc(NC(=O)c2ccc(N3CCCC3=O)cc2)cc1	3
CCOc1ccc(NC(=O)COC(=O)c2cc(=O)c3ccccc3o2)cc1	-3
COc1ccccc1NC(=O)C1CCCN1C(=O)NC1CCCCC1 (stereo not drawn)	-3
CCC(C)(C)NC(=O)CN(C(=O)CCC(=O)Nc1nccs1)c1ccc2c(c1)OCCO2	0
O=C(NCc1ccc(Cl)cc1)c1ccc(NC(=O)C2CCCO2)cc1 (stereo not drawn)	3
CCOc1cc(/C=N/NC(=O)c2ccccc2-n2cccc2)ccc1O	-3
O=C1CN(C(=O)COC(=O)/C=C/c2ccc(F)cc2)c2ccccc2N1	4
COc1cccc(CN(C)C(=O)C2CCN(S(=O)(=O)c3cccs3)CC2)c1OC	-6
CCOC(=O)C1CCCN(CC(=O)N(C)c2c(N)n(Cc3ccccc3)c(=O)[nH]c2=O)C1 (stereo not drawn)	-1
Cc1ccc(CN2CC[C@H]3C=CCc4cccc(c43)C2)cc1	47
CCOc1ccc(C(=O)COC(=O)c2nn(CC)c(=O)c3ccccc23)cc1	2
CCc1cc(CNC(=O)c2cc(COc3ccc(C)nc3)on2)on1	u
COc1ccc(-c2c(-c3cc(OC)cc(OC)c3)n(C)c3ccc(-c4cnc(OC)nc4)cc23)cc1	3
O=C(Nc1cccc(O)c1)c1cccc(S(=O)(=O)Nc2cccc(O)c2)c1	-1
CC(C)(CNS(=O)(=O)c1cccs1)N1CCOCC1	-1
COCc1c(C(=O)NC2CCCCC2)sc2cccc(F)c12	11
CN(CC(=O)Nc1cccc(F)c1)C(=O)c1cccc(N2C(=O)CCC2=O)c1	-3
COc1ccccc1NS(=O)(=O)c1cc(N)ccc1N1CCCC1	1

An excerpt of these results, with each value named:
canonical_smiles: Cc1ccc(CN2CC[C@H]3C=CCc4cccc(c43)C2)cc1
  Mtb betalactam: 47
canonical_smiles: COCc1c(C(=O)NC2CCCCC2)sc2cccc(F)c12
  Mtb betalactam: 11
canonical_smiles: CC(C)(CNS(=O)(=O)c1cccs1)N1CCOCC1
  Mtb betalactam: -1
canonical_smiles: O=C1CN(C(=O)COC(=O)/C=C/c2ccc(F)cc2)c2ccccc2N1
  Mtb betalactam: 4

(cont.)
smiles	Mtb betalactam
CC(C)=CCN1CC[C@@]2(C)c3cc(O)ccc3C[C@@H]1C2C (stereo partly drawn)	-4
O=C1N=c2ccc([N+](=O)[O-])cc2=C1c1sc(=O)[nH]c1O	-4
Cc1noc(C)c1COC(=O)C1CCN(S(=O)(=O)c2ccc(F)cc2)CC1	2
COc1ccc(-n2sc3ccc(F)cc3c2=O)cc1	99
O=C(NNC(=O)c1ccc2nc[nH]c2c1)c1ccccc1	-13
Cn1nc(C(=O)NCC(c2cccs2)N2CCOCC2)c2ccccc2c1=O (stereo not drawn)	-9
O=C(Nc1ccccc1)/C(=C\c1ccc(F)cc1)NC(=O)c1ccco1	1
O=C(C[C@H]1C/C=C\C[C@@H](Cc2ccc(F)cc2)C(=O)O[C@H](c2ccccc2)CNC1=O)NCCO	3
COc1cccc(NC(=O)CN2C(=O)C(=O)N(C3CCCC3)C2=O)c1	0
O=C(Cc1coc2cc(O)ccc12)NNC(=O)c1cccs1	1
O=C(NCc1cccc(OC(F)(F)F)c1)c1ccc2c(c1)S(=O)(=O)c1cc(Cl)ccc1C2=O	3
COc1ccc(-c2nnc(SCC(=O)NC(=O)Cc3ccccc3)n2C)cc1	-6
COc1ccc(-n2c(SCCNCCO)nc3sc4c(c3c2=O)CCCC4)cc1	6
O=C(COC(=O)/C=C/c1ccc(OC(F)F)cc1)NC(=O)NC1CCCCC1	-3
CN1C(C)(C)CCCC1(C)C	4
COC(=O)C1=C(c2ccc(C(C)=O)cc2)C[C@@H]2CC[C@H]1N2C(=O)NCCCOC(C)C	2

Not all compounds are listed; rates above refer to the full screens.
